Screening results as filed in PubChem BioAssay.
Rango release inh = prevents RanGTP from dissociating the Rango-importin beta complex; Potency, µM (doses to about 46.1 µM), for inactives: top-dose activity change, negative = inhibition; Biochemical FRET Rango-importin beta, RanGTP-induced dissociation; O95149+P62826; 340,000 tested, 0.071% active; active means falling FRET ratio curve, often poorly fitted, with flat reads before Ran was added; inconclusive means other falling curves, or compound fluorescence or quenching; inactive means flat or rising ratio curve;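 also: potency is read from the fitted curve at half-maximal effect; % of control where 0% means no effect; nearly all actives have a fitted effect of over 45% in size; -100% = wells without RanGTP and RCC1; the record marks most hits as doubtful in a second field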
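FRET read at 45 min, room temperature: inhibitors block the CFP/YFP signal rise when RanGTP (0.6 uM Ran, 2 mM GTP, 0.2 uM RCC1) frees Rango (0.1 uM) from importin beta (0.25 uM). Pre-read after 5 min compound exposure flags interference.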
GLA inh pH 4.5 = inhibitors of human alpha-galactosidase A at pH 4.5. P06280. purified enzyme, 4-MU-alpha-Gal fluorescence, pH 4.5. activity change, negative = inhibition, % at 105 µM. 230,000 tested, under 10 active; inconclusive = small, poorly fitted or top-dose-only inhibition, or a rising curve; inactive = flat fitted curve, though single readings scatter; no compound was filed as active;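 also: 0% = full activity with enzyme and -100% = basal without enzyme; dose as in the result columns while the protocol names 77 µM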
Target sequence (P06280 whole entry, looked up): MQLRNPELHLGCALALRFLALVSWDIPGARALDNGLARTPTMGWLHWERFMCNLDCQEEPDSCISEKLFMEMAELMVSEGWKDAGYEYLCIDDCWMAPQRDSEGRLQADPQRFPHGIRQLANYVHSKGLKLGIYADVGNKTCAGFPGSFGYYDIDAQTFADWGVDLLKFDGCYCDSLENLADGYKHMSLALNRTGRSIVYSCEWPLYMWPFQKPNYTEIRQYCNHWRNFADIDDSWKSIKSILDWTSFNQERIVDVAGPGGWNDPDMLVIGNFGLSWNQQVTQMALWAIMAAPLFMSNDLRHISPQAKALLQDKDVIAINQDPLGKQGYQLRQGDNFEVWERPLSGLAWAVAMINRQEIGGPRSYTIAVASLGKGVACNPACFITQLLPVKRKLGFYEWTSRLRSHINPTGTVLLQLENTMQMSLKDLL
miR-21 FLuc = miR-21 reporter, rising signal. HeLa miR-21 FLuc reporter, luciferase, 48 h. Potency, µM (top dose mostly 38.3 µM), for the others: at the highest dose reporter change, positive = more light. 340,000 tested, under 10 active; active = well fitted rising curve with a large enough effect; inconclusive = small, poorly fitted or top-dose-only effect; inactive = no such curve, though single readings can be large or run the other way;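 also: % of control where 0% means no effect; miR-21 action dims this reporter so a rising signal means less miR-21 action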
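Luminescence from a firefly luciferase reporter carrying a miR-21 binding site downstream, stably expressed under a CMV promoter in HeLa cells that make miR-21 endogenously, reports miRNA modulation after 48 h compound exposure up to approximately 40uM final.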
Rango-impB inh = inhibitors of Rango-importin beta complex formation. Q14974. Rango CFP/YFP FRET sensor + importin beta, 45 min. Potency, µM (titrated, usually from 92.2 µM), for the others: top-dose inhibition of complex formation. 340,000 tested, 0.031% active; active = rising FRET ratio curve, often small or poorly fitted; inconclusive = mostly compound fluorescence or quenching in the first reads; inactive = flat curves in all reads;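 also: potency is read from the fitted curve at half-maximal effect; 0% = DMSO wells and 100% = buffer wells lacking importin beta; nearly all actives have a fitted effect of over 15% in size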
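Inhibition scored from the CFP 486 nm/YFP 530 nm FRET ratio 45 min after adding 0.125 microM importin beta to 50 nM Rango biosensor preincubated 5 min with compound (room temperature, PBS with DTT, Tween-20, BSA). No-importin wells as positive control.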
* hit, by the source's call; ? = inconclusive; · = no result given; & = joins results of further samples; [ ] = remark or other dose. This is a subset, so the mix of outcomes need not match the whole.

SMILES | Rango release inh | GLA inh pH 4.5 | miR-21 FLuc | Rango-impB inh
COc1cccc(C2=CC(=O)C[C@H](c3ccc(Cl)cc3)C2)c1OC | 1% | · | · | -0.9%
CC(=O)Nc1ccc(C(=O)Nc2ccc(S(=O)(=O)Nc3nccc(C)n3)cc2)cc1 | -7% | · | 2% | -0.5%
Brc1cccc(CNn2cnnc2)c1 | 17% | · | · | 4.0%
O=C(CC1CCCC1)N1CCCC(Nc2ccc(F)cc2)C1 (stereo not given) | 0% | · | 1% | -2.1%
COc1ccc(-n2nc3c(c2NC(=O)c2ccc(N4C(=O)CCC4=O)cc2)CSC3)cc1 | 0% | 4 | -1% | 0.9%
Cc1nnc(NC(=O)CSc2nnc(CCNC(=O)c3ccccc3F)n2C)s1 | ? | · | -2% | 1.6%
COc1ccc(C)cc1NC(=O)CNc1ccccc1CN(C)C1CCCCC1 | 5% | -12 | -3% | 3.0%
CC(C)Nc1nnc(SCC(=O)NCc2ccc3c(c2)OCO3)s1 | -1% | 5 | -2% | -3.6%
CC(C)NC(=O)COC(=O)Cn1[nH]c(=O)c2ccccc2c1=O | 1% | -2 | 0% | 0.9%
CN1CCC(=NNC(=O)CN(c2cccc([N+](=O)[O-])c2)S(=O)(=O)c2ccccc2)CC1 | 0% | · | 1% | -0.3%
CN(C(=O)c1ccc(Br)cc1)C1CCS(=O)(=O)C1 (stereo not given) | 15% | · | · | -1.0%
Cc1cc(OC(=O)c2cc(Cl)ccc2Cl)c([N+](=O)[O-])c(=O)[nH]1 | -2% | · | 2% | -3.4%
N/C(=N\c1nc2c(c(=O)[nH]1)CCCC2)Nc1ccc(Oc2ccccc2)cc1 | 13% | -26 | -2% | 3.2%
CN(CC(=O)Nc1ccc(Cl)c(C(F)(F)F)c1)C(=O)c1cccnc1Sc1ccccc1 | -12% | · | -1% | 0.1%
COc1cc(/C=C(\C#N)C(=O)Nc2cccc3ncccc23)ccc1O | · | -3 | 0% | ·
S=c1[nH]c(-c2ccccc2)cs1 | -2% | -10 | -17% | 0.8%
CC(C)CCN1CCN(Cc2ccc(C(F)(F)F)cc2)CC1CCO (stereo not given) | 1% | -6 | 1% | -4.3%
CCN1CCN(c2c(Cl)cccc2NC(=O)c2ccc3nsnc3c2)CC1 | 13% | 2 | 1% | 3.7%
O=[N+]([O-])c1cc(C(F)(F)F)ccc1N1CCCNCC1 | -25% | -1 | -10% | 2.0%
Cn1c(SCC(=O)O)nnc1-c1ccc2ncccc2c1 | · | 0 | 2% | ·
O=S(=O)(NCC(c1cccnc1)N1CCN(Cc2ccccc2)CC1)c1ccc(F)cc1 (stereo not given) | 6% | · | 0% | -3.2%
Clc1ccc(-c2cc3ccccc3nc2N2CCOCC2)cc1 | 0% | -2 | -1% | 1.4%
CN(CC(=O)Nc1ccc(F)cc1)C(=O)COC(=O)c1ccccc1 | 0% | · | · | 0.5%
CC(C)c1ccc(/C=C/C(=O)NC2CCCCC2)cc1 | 1% | -3 | 0% | 2.6%
CC(C)(C)OC(=O)N1CCCC1C(=O)NCCc1ccccc1 (stereo not given) | 0% | 2 | -3% | -1.4%
CC(C)(C)c1ccc(OCc2ccc(C(=O)N/N=C/c3ccc([N+](=O)[O-])cc3)o2)cc1 | -2% | -9 | -13% | -0.4%
CCCN1CCN(c2ccc(S(N)(=O)=O)cc2[N+](=O)[O-])CC1 | 1% | 7 | -6% | 0.8%
COc1ccc(-n2ncc3c(NCc4ccccn4)ncnc32)cc1 | -10% | -1 | -60% | 3.9%
O=C(Cn1c2ccc(F)cc2c2nc3n(c(=O)c21)CCS3)Nc1ccccc1C(F)(F)F | -8% | -5 | -1% | -1.9%
CCCc1nnc(NC(=O)c2cc(OC)cc(OC)c2)s1 | -16% | 10 | -19% | 2.8%
COc1ccc(C(=O)N2CCN(c3nc4ccccc4o3)CC2)cc1OC | ? | 8 | 6% | -2.8%
COCCn1c(C)cc(/C=N/NC(=O)c2cc3ccccc3cc2O)c1C | ? | · | · | ?
CCOC(=O)C1=C(C)Nc2ccccc2N=C1NC(=O)c1cccc(S(=O)(=O)NCc2ccccc2)c1 | 1% | 4 | 7% | -5.6%
O=C(Nc1ccccc1N1CCOCC1)c1ccccc1[N+](=O)[O-] | -5% | -18 | -4% | -0.5%
COc1ccccc1-c1cc(C(=O)NC(C)C)no1 | 0% | -24 | -58% | -7.0%
COc1ccccc1CNc1ncnc2cc(OC)c(OC)cc12 | 25% | 0 | -10% | 2.4%
CCC(C(=O)OCC(=O)N1CCN(c2ccc(OC)cc2)CC1)c1ccccc1 (stereo not given) | -7% | · | · | 4.1%
CC12CN3CCN(CC(C3)/C1=N\NC(=O)c1ccccc1N)C2 | -4% | -3 | -62% | -0.7%
FC(F)(F)c1cccc(NC(=S)NNC(=S)NCc2ccccc2)c1 | -9% | -19 | -11% | -2.6%
CCC(=O)Nc1ccccc1C(=O)OCC(=O)c1ccc2ccccc2c1 | 20% | 4 | -5% | -2.8%
COc1ccc(-c2cn[nH]c2-c2ccc(OCc3ccc([N+](=O)[O-])cc3)cc2O)cc1 | 19% | 10 | ? | ?
CN1C(=O)/C(=C\C=C2/CCCN2C)N(C)C1=S | -17% | 1 | -22% | -3.7%
CCOc1ccc(NC(=O)c2cc3n(n2)C(C(F)(F)F)CC(c2ccco2)N3)cc1 (stereo not given) | 8% | 5 | -8% | 1.0%
CCOc1ccccc1NC(=S)NC1CC2CCC1C2 (stereo not given) | 14% | · | 9% | 0.3%
Nc1nc(Cl)nc2ccc(Br)cc12 | -16% | 5 | -22% | ?
O=C(Nc1ccc(N2CCOCC2)c(Cl)c1)c1cccnc1Cl | -3% | 2 | -21% | 1.7%
Cc1cc(C)cc(NC(=O)C(Sc2ncnc3ccccc23)c2ccccc2)c1 (stereo not given) | 0% | -12 | -39% | 8.8%
COc1cc(/C=N/NC2=NCCCCC2)ccc1O | 0% | -2 | -4% | -0.8%
CCc1ccc(NC(=O)C(C)OC(=O)CCN2C(=O)C3CC=CCC3C2=O)cc1 (stereo not given) | -12% | · | · | -2.5%
Cc1noc(/C=C/N(C)C)c1S(=O)(=O)N(C)CC(=O)N1CCc2ccccc21 | ? | -17 | -6% | ?
O=C(Cc1n[nH]c(=O)c2ccccc12)OCC(=O)c1ccccc1Cl | 9% | · | · | 2.9%
COc1ccc(N2CCN(C(=O)c3ccc4c(=O)n(CCc5ccc(OC)c(OC)c5)c(=O)[nH]c4c3)CC2)cc1 | 0% | 2[21.1 µM] | -1%&12% | -0.3%
COc1cccc2c(=O)cn[nH]c12 | -7% | -6 | -15% | -0.2%
CSCC(=O)N1CCc2ccc(NC(=O)c3ccccc3Cl)cc2C1 | -16% | · | -29% | -4.5%
O=C(Nc1ccccc1C(=O)NCc1cccnc1)c1ccccc1Cl | 1% | · | 1% | -2.5%
CC1CC(C)CN(C(=O)c2ccc3nc[nH]c3c2)C1 (stereo not given) | 0% | · | -9% | -7.2%
CCOC(=O)c1sc(NC(=O)Nc2cccc(Cl)c2)cc1C | 23% | -8 | 12% | 0.4%
Cc1cc(OCC(O)CN2CCN(c3ccccn3)CC2)cc(C)c1Cl (stereo not given) | -7% | · | 8% | 2.1%
O=C1ON=C(c2ccccc2)/C1=C\c1ccco1 | -6% | -7 | 4% | -2.6%
CCOC(=O)c1ccc(N2CN=C3SCC(=O)N3C2)cc1 | -9% | 14 | -22% | -3.9%

(listing goes on)
SMILES | Rango release inh | GLA inh pH 4.5 | miR-21 FLuc | Rango-impB inh
CCn1c(SCC(=O)NCc2ccccc2)nc2ccccc2c1=O | -7% | 7 | -3% | -1.8%
Cc1ncc(CN2CCCC(CCC(=O)NCc3ccccc3F)C2)s1 (stereo not given) | -5% | 5 | -2% | -3.8%
CCS(=O)(=O)Nc1ccc(-c2nnc(SCC(=O)c3ccc(NC(C)=O)c(OC)c3)o2)cc1 | -2% | -9 | -3% | 0.6%
CCNC(=S)Nc1ccc2cn[nH]c2c1 | 18% | -2 | 5% | 0.9%
O=C1CSC(c2cccnc2)N1C1CCCCC1 (stereo not given) | -5% | -4 | -2% | 1.9%
O=C(CSc1nc2cccnc2n1Cc1ccccc1)N1CCCC1 | -4% | -27 | -3% | ?
NC(=O)c1ccc(CN2CCC(Cc3ccccc3)CC2)cc1 | -8% | 1 | -2% | -0.6%
CCCOC(=O)c1ccc(Nc2nc(C)cc(=O)[nH]2)cc1 | 19% | -5 | -4% | 1.5%
c1ccc(Nc2c(-c3ccco3)nc3ccccn23)cc1 | 10% | 6 | -23% | -3.0%
O=S(=O)(Nc1ccc(N2CCOCC2)cc1)c1cc(Cl)ccc1Cl | 19% | · | -12% | 0.2%
COC(=O)c1cc(S(=O)(=O)N2CCCCCC2)cn1C | -6% | · | -3% | -1.9%
Cc1nc2cc(F)ccc2n1C1CCN(C(=O)c2c(F)cccc2F)CC1 | 24% | 6 | 19% | -1.0%
Cn1c(=O)c2c(nc(CN3CCCCC3)n2Cc2c(F)cccc2Cl)n(C)c1=O | 9% | 1 | 1% | 0.6%
Clc1ccc(-c2nc(N3CCOCC3)nc3ccccc23)cc1 | ? | · | -2% | ?
CN(/C(=N/S(=O)(=O)c1cccs1)c1ccccc1)c1ccc(O)cc1 | 19% | -4 | 2% | -2.0%

At a glance, some entries already given.
SMILES | Rango release inh | GLA inh pH 4.5 | miR-21 FLuc | Rango-impB inh
CCn1c(SCC(=O)NCc2ccccc2)nc2ccccc2c1=O | -7% | 7 | -3% | -1.8%
Cc1ncc(CN2CCCC(CCC(=O)NCc3ccccc3F)C2)s1 (stereo not given) | -5% | 5 | -2% | -3.8%
CCS(=O)(=O)Nc1ccc(-c2nnc(SCC(=O)c3ccc(NC(C)=O)c(OC)c3)o2)cc1 | -2% | -9 | -3% | 0.6%
CCNC(=S)Nc1ccc2cn[nH]c2c1 | 18% | -2 | 5% | 0.9%

More entries follow:
SMILES | Rango release inh | GLA inh pH 4.5 | miR-21 FLuc | Rango-impB inh
Cc1cc(C)nc(SCc2ccc(Br)cc2)n1 | 13% | · | -27% | 0.3%
CCN(CC)CCNC(=O)CSc1c2c(nc3cc(Cl)ccc13)CCCC2 | 8% | -4 | ? | -0.2%
O=C(Nc1nc2ccccc2s1)NC1CCCCC1 | -4% | 1 | -35% | 0.5%
CCOC(=O)N1CCC(N(CCN(C)C)C(=S)Nc2cccc(SC)c2)CC1 | -13% | 2 | -7% | 2.7%
CSC1=NC(C)(C)CC2(C)Nc3ccccc3N12 (stereo not given) | -8% | 3 | -10% | 0.2%
COc1ccc(N2C(=NC(C)=O)SC3CS(=O)(=O)CC32)cc1OC (stereo not given) | 15% | 3 | -4% | 2.8%
Oc1ccccc1-c1cc(C(F)(F)C(F)F)[nH]n1 | 0% | -8 | -19% | -2.6%
Fc1ccccc1CSc1nncn1NC/C=C/c1ccccc1 | 10% | 1 | -9% | 13%
Cc1cccc(-n2cc(CN(C)Cc3nccn3C)c(-c3cccc(F)c3)n2)c1 | 0% | -12 | 19% | -1.1%
OCCN1CN=C(Nc2nc3ccccc3o2)NC1 | -4% | -4 | -9% | -1.3%
CCc1ccc(CN(C)Cc2nc(Cc3ccccc3)no2)nc1 | 26% | -16 | -8% | -0.1%
CCC[n+]1cn(/C(C(=S)Nc2cccc(Cl)c2C)=C(/[O-])c2ccc(OC)c(OC)c2)c2ccccc21 | 11% | -5 | -4% | ?
Cn1c(=O)c2c(nc(SCC(=O)N3CCOCC3)n2C)n(C)c1=O | 1% | · | 3% | -4.5%
Cc1cc(C)cc(N2CCN(C(=O)N3CCOCC3)CC2)c1 | 24% | 1 | 1% | -2.3%
CC1CCCN(S(=O)(=O)c2ccc(NC(=O)c3cccc(-n4cnnn4)c3)cc2)C1 (stereo not given) | 0% | -5 | 18% | -2.5%
CCOC(=O)N1CCN(C(=O)C2CC(c3ccccc3OC)=NO2)CC1 (stereo not given) | -8% | 0 | -7% | -5.4%
CCOc1ccc(NC(=O)CN2C(=O)NC(C)(c3ccc4c(c3)OCCCO4)C2=O)cc1OCC (stereo not given) | 1% | · | · | -3.2%
CCc1ccc(C(=O)NNC(=O)CC2OC(=O)c3ccccc32)cc1 (stereo not given) | -24% | · | · | -2.3%
CCC(=O)Nc1ccc2c(c1)nc1n2CCN(C2CCCCC2)C1 | -17% | 7 | -22% | ?
